D2 potentiator: human D2 receptor positive allosteric modulation; DiscoveRx D2 beta-arrestin cells, luminescence, 90 min; 100% = 57 uM dopamine signal; potentiation, % (no concentration beside the values); actives 0.23% (n = 360,000); active = potentiation of 50% or more; inconclusive = 30% to 50%; inactive = 30% or less;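 further: compound concentration not given in the record; tested on top of an EC20 dose of dopamine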
Target sequence (P14416 whole entry, looked up): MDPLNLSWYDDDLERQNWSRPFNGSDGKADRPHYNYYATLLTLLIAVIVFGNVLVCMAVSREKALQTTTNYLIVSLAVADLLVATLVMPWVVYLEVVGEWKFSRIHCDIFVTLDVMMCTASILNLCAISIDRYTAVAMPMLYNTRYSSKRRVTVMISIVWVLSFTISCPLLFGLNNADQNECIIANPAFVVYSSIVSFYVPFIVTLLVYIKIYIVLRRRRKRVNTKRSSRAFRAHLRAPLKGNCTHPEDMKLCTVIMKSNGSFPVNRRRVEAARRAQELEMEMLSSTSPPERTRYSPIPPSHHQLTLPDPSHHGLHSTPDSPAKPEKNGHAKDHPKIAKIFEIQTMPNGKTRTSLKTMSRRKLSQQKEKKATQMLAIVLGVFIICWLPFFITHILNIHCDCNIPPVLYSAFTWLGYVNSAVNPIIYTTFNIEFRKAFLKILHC
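D2 cells co-treated with compound plus 50 nM dopamine (EC20) for 90 min at 37 deg C to detect potentiation. Beta-arrestin recruitment was read as enzyme-fragment luminescence after 1 h at ambient temperature. Full response was set by 57 uM dopamine.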
TRPML1 ag: activates the human TRPML1 channel. Q9GZU1. TRPML1-expressing cells, Ca2+ dye fluorescence, FDSS; host cell line not named in the record; reference of the full effect not given here. activation, % (test concentration not listed). actives 0.12% (n = 410,000). AID 624414; in the data active = activation above about 50%; inconclusive = about 30% to 50%; inactive = below about 30%; further: 0% is about no effect; the text of the record puts the active cut at 80%
Target sequence (Q9GZU1 whole entry, looked up): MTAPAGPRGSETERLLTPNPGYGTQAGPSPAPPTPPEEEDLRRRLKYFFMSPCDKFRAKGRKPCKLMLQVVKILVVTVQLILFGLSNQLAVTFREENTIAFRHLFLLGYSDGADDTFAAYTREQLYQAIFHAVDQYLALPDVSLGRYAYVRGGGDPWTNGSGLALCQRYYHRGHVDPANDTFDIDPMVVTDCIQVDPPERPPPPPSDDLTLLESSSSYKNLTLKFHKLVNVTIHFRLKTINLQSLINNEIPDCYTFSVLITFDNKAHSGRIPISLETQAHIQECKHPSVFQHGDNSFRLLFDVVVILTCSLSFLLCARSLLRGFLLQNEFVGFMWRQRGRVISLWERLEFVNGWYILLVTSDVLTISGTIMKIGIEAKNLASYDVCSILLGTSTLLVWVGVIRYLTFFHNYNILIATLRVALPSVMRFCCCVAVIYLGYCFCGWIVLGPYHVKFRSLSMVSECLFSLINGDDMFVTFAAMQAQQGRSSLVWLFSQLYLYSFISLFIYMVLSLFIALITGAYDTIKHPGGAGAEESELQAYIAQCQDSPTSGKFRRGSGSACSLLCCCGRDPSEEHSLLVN
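In this qHTS format, compounds were pin-transferred onto Ca8-dye-loaded TRPML1-DL cells induced with Tet overnight, and intracellular Ca2+ fluorescence was recorded kinetically for 110 s after a 10 s baseline. A subsequent 4uM final 54-4 (EC80) addition followed by a second 110 s read served as the antagonist phase.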
Six1-Eya2 inh: inhibitors of human Six1/Eya2 interaction; Q15475+O00167; AlphaScreen GST-Six1/His-Eya2 binding, biochemical; hits give low values; control for the full effect not named in the record; activity change, % (concentration not given with the values); actives 0.56% (n = 360,000); AID 651725; in the data active = activity change below about -65%; inconclusive = about -30% to -65%; inactive = above about -30%; further: on the % scale 0 is the no-effect control and ±100 the full control effect
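Compounds are tested against tagged Six1 and Eya2 proteins bridged by glutathione donor and nickel acceptor beads; after a one-hour incubation at 37 °C without light, AlphaScreen emission is recorded.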
TRPML1 inh: inhibitors of human TRPML1 channel | actives 0.02% (n = 390,000) | activity change, negative = inhibition, % (no concentration beside the values) | TRPML1-inducible cells, Ca2+ dye fluorescence, FDSS; hits give low values; inhibition of EC80 agonist-evoked calcium signal | Q9GZU1; in the data active means activity change below about -50%; inconclusive means about -30% to -50%; inactive means above about -30%;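 further: stimulus is agonist 54-4 at its EC80 concentration; on the % scale 0 is the no-effect control and ±100 the full control effect; compound concentration not given in the record; the text of the record puts the active cut at -80%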
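Tet-induced TRPML1-DL cells loaded with Ca8 no-wash calcium dye were read kinetically on FDSS. Compound addition was followed by EC80 agonist 54-4 (4 uM final); inhibition was read over 110 s.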
PINK1 modulator: changes PINK1 expression | PINK1 immunofluorescence, high-content cytometry, 24 h | Potency, µM (titrated, usually from 76.6 µM), without a hit: at the highest dose activation (PINK1 increase), actives largely listed as activators | actives 0.2% (n = 410,000); active = well fitted activation curve with a large enough effect; inconclusive = small, poorly fitted or top-dose-only effect; inactive = flat fitted curve, though single readings scatter; cell line not stated here;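 further: potency means the concentration at half of the fitted maximal effect; % of control where 0% means no effect; nearly all actives have a fitted effect of over 65% in size; a mitochondrial uncoupler was the plate control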
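Measures PINK1 amount and localization on or inside mitochondria by immunofluorescence. Stable cells get compounds at 5 concentrations for 24 hours before fixation and staining; CCCP controls included.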
D2 ag: agonists of human D2 dopamine receptor (beta-arrestin) | P14416 | activation, % (test concentration not listed) | actives 0.084% (n = 360,000) | AID 624465 | DiscoveRx PathHunter D2 beta-arrestin, luminescence, 90 min; 100% = 57 uM dopamine signal; in the data active = activation above about 40%; inconclusive = about 15% to 40%; inactive = below about 15%; further: compound concentration not given in the record; the text of the record calls up to 30% inactive
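Agonist mode: compounds alone added to overnight-plated D2 PathHunter cells for 90 min at 37 C, with 57 uM final dopamine (EC100) defining full response. Beta-arrestin recruitment detected by chemiluminescent reagent, read after 1 h at ambient temperature.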
Active calls of the source: *; ? = inconclusive; . = no result given; [ ] = dose if it differs, or a comment.

Second line of a record – D2 potentiator, TRPML1 ag, Six1-Eya2 inh, TRPML1 inh, PINK1 modulator, D2 ag
CCN(CC(=O)NC1CCS(=O)(=O)C1)S(=O)(=O)c1ccc(Br)cc1 (stereo unspecified)
 : -10, 0.2, 17, 43, -1.1%, -8.2
CC(C(=O)O)c1ccc2c(c1)[nH]c1ccc(Cl)cc12 (stereo unspecified)
 : 5, -0.6, -5, 2, 2.4%, -1.9
O=[N+]([O-])c1ccc(N2CCN(S(=O)(=O)c3ccc(Cl)cc3)CC2)cc1NCC1CCCO1 (stereo unspecified)
 : -2, 0.7, -10, -11, 5.5%[38.3 µM], -0.3
Cc1ccc(C)c(NC(=O)CN(Cc2ccccc2)S(=O)(=O)c2ccc3nc(C)sc3c2)c1
 : ., 1.6, ., -22, -1.7%, .
Cc1ccc(S(=O)(=O)N2CCN(Cc3ccco3)CC2)c(C)c1
 : -4, 0.6, -10, -7, 2.3%, -2.1
COc1ccc(-c2cc(-c3ccc(O)cc3)nc(N)c2C#N)cc1OC
 : 22, 0.6, ?, -15, 8.2%, ?
COc1ccc(NC(=O)CCNS(=O)(=O)c2cccc3nsnc23)c(OC)c1
 : -7, -0.1, -4, -5, 2.4%, -4.5
O=C(NCCCO)/C(=C\c1ccco1)NC(=O)c1ccc(Br)o1
 : -35, -0.3, 2, 4, -1.6%, -3.0
COc1ccc(S(=O)(=O)NCC(c2ccco2)N2CCN(c3ccccc3F)CC2)cc1C (stereo unspecified)
 : ., 2.4, ., -7, 2.3%, .
CCOC(=O)c1cc(-c2ccc(N3CCOCC3)cc2)nn1-c1ccccc1
 : -14, -0.5, -6, 9, 0.2%, 1.9
O=C(NC1CCSC1=O)c1ccc(Oc2ccc(F)cc2)nc1 (stereo unspecified)
 : -4, -0.9, 8, -4, -0.4%, -0.2
C/C(Cc1ccccc1)=N\NC(=O)c1ccc(F)cc1
 : -7, 1.8, -2, -3, 1.2%, -3.6
O=C(Nc1ccc(Cl)cc1)c1csc([C@H]2C[C@H](O)[C@@H](CO)O2)n1
 : -14, -0.5, 0, ., 0.9%, -2.5
CCOC(=O)N1CCN(CC(O)c2ccccc2)CC1 (stereo unspecified)
 : -15, -0.4, -1, 7, -0.7%, -1.5
CCOC(=O)C1=C(COC(=O)c2ccccc2[N+](=O)[O-])NC(=O)NC1C (stereo unspecified)
 : -67, 1.9, 0, 7, -2.0%, -1.0
N#Cc1ccccc1OCC(=O)N1CCN(c2ccccc2)CC1
 : ., -0.9, ., 19, 1.7%, .
Cc1c(C(=O)Nc2nccs2)oc2ccc(F)cc12
 : -3, 0.0, -2, 23, -0.6%, -4.7
O=C(NC(Cc1ccccc1)C(=O)N1CCN(S(=O)(=O)c2ccccc2)CC1)c1ccccc1 (stereo unspecified)
 : 3, 0.7, -4, -1, -1.3%, 0.4
CCN(CC)C(=O)CSc1ncnc2c(-c3cccs3)nsc12
 : -12, -0.9, -25, -6, 0.6%, -3.3
COc1ccc(-c2cn3cccnc3n2)cc1NC(=O)Cc1ccccc1
 : ., -0.5, ., 5, 0.3%, .
CCCn1c(=O)n(N)c2ccccc21
 : -7, 0.6, 3, -21, 0.7%, -2.9
CCOc1ccc(-c2noc(CCC(=O)NCCc3ccccc3)n2)cc1OC
 : -10, 1.1, 7, 8, 3.0%, 3.0
O=C(NCc1ccccc1)C1CC(=O)N(c2ccc(OCC(=O)N3CCOCC3)cc2)C1 (stereo unspecified)
 : -15, -0.9, -9, -12, 1.4%, -4.3
CCCc1n[nH]c2c1C(=O)C(C(=O)OC)C(C)(C)C2 (stereo unspecified)
 : -6, -0.5, -1, 1, 2.4%, -0.7
O=C(NCc1cccnc1)c1cc(C2CCCN(S(=O)(=O)c3ccccc3)C2)on1 (stereo unspecified)
 : 0, -0.9, 2, ., -0.5%, -6.2
Cc1c(Cl)cccc1NC(=O)c1cc(-c2cccs2)on1
 : ., 2.1, ., 3, 7.5%, .
CCC(=O)Nc1cccc(NC(=O)COc2ccc(OC)cc2)c1
 : -15, 0.2, 4, -14, 0.6%, -2.7
OCCNc1nc(-c2ccccc2)c2cc(Br)ccc2n1
 : 1, 1.6, 32, -14, -0.4%, 7.3
O=C(Nc1nn(Cc2ccccc2F)cc1Br)c1cccs1
 : -4, 0.6, 2, -2, 2.2%[38.3 µM], -1.4
Cc1ccc(S(=O)(=O)NCC(=O)OCC(=O)Nc2ccc3c(c2)OCCO3)cc1
 : -7, -0.1, -9, 1, 0.8%, 1.9
CCOC(=O)N1CCN(c2cc(=O)n(C3CCCCC3)c(=O)[nH]2)CC1
 : -2, 1.1, 1, 37, 2.0%, 1.1
COCCNC(=O)c1c(CSc2ccc(F)cc2)noc1C(=O)NCc1ccccc1
 : -11, 2.3, 4, -9, -1.2%, -0.7
O=C(Nc1ccccc1)NC1CCN(Cc2ccccc2)CC1
 : ., 0.9, 0, 1, 4.1%, .
CN(C)C(CNC(=O)c1oc2ccccc2c1CSc1ncn[nH]1)c1ccco1 (stereo unspecified)
 : -6, -1.1, -3, -16, 3.5%, -7.4
CN(Cc1ccc(F)cc1)C(=O)c1cccc(NS(=O)(=O)c2ccccc2)c1
 : -6, 1.5, 4, -5, -1.1%, 7.7
Cc1c(C=O)c2ccccn2c1C(=O)c1ccc(F)cc1
 : -7, -0.4, 8, 75, -0.5%, -3.4
CCN1CCN(C(=O)C2=CC(c3ccc(C)cc3)=NS(=O)(=O)N2C)CC1
 : -8, -0.4, 2, 9, 1.9%, -6.7
CN(C)c1ccc(C(CC(=O)O)C(=O)O)cc1 (stereo unspecified)
 : 16, 2.3, 8, -3, -0.1%, -0.9
CCCCNC(=O)CSc1nc2cc3c(cc2c(=O)n1CCCC(=O)NCc1ccc(OC)cc1)OCO3
 : ., 2.1, ., 26, -0.6%, .
CCOC(=O)N(C)c1c(CC)nc2c(OCc3cc(Cl)cc(Cl)c3)cccn12
 : -19, 4.0, -2, 19, ?, 3.1
Cc1nn(-c2ccccc2)c2c1C(c1ccncc1)C(C#N)=C(N)O2 (stereo unspecified)
 : 2, -0.9, -17, 13, 1.1%, -3.6
COc1cccc(NC(=S)NCCCN2CCOCC2)c1
 : -13, 0.6, 5, 18, -0.9%, 2.2
COc1ccc(C2=NN(c3ccccc3)C(c3ccc(OC)c(OC)c3)C2)cc1 (stereo unspecified)
 : -3, 0.8, 38, 55, 1.0%, -4.5
O=C(COC(=O)c1cccc(S(=O)(=O)N2CCOCC2)c1)c1ccccc1
 : -10, ?, 22, -13, 0.8%, 0.7
CCCN(CCC)C(=O)Cn1c(=O)n(CCCCCC(=O)NCc2ccccc2Cl)c(=O)c2sccc21
 : ., -0.3, ., 15, 0.4%, .
CCN(CC)c1ccc(C(=O)OCC(=O)Nc2ccccc2-c2ccccc2)cc1
 : -9, 2.3, 2, 9, 3.1%, -5.9
CN(C)C(CNC(=O)c1cccnc1Sc1ccccc1)c1ccco1 (stereo unspecified)
 : -19, 0.0, -1, -16, 0.7%, -3.3
CCOC(=O)C(C)Sc1nnc(-c2ccccc2O)n1Cc1ccccc1 (stereo unspecified)
 : -3, -0.6, -1, 25, -1.2%, -3.6
Cc1ccc(S(=O)(=O)N2CCCCC2)cc1NC(=O)c1ccc(=O)[nH]c1
 : -6, -0.3, -6, 6, 1.2%, -2.7
CCOc1ccccc1NC(=O)n1ncc2c(C)cccc21
 : -5, 0.9, 3, 11, 5.7%, -2.4
Cc1ccc(CN(C(=O)COc2cccc([N+](=O)[O-])c2)c2ccccn2)o1
 : ., -0.6, ., 15, 1.4%, .
CC(=O)Nc1nc(N2C(=O)c3ccccc3C2=O)n(-c2ccccc2)n1
 : 3, 0.4, -28, 2, 2.1%, -1.5
COc1ccc(N/C=C(\C#N)c2nc3ccccc3n2C)c(OC)c1
 : -8, 1.0, -28, -9, -1.4%, -5.9
CCC(C)NC(=O)C1CCN(S(=O)(=O)c2cccc3nonc23)CC1 (stereo unspecified)
 : -3, -0.2, 4, 4, -2.5%, 11
Cc1ccc(-c2noc(CNC(=O)COc3cc(C)c(Br)c(C)c3)n2)cc1
 : ., 0.0, ., 29, 1.6%, .
CC(=O)c1ccc(OCc2cc(C(=O)N3CCOCC3)no2)cc1
 : -1, 0.3, 20, -5, -0.1%, -4.5
O=C1c2ccccc2NC(c2ccccc2O)N1O (stereo unspecified)
 : -8, ., -4, ., 3.1%, -5.0
COc1ccccc1C(=O)Nc1ccc2c(c1)C(=O)NC2=O
 : -6, -1.0, 7, 2, -0.8%, -5.6
CC(=O)Nc1c(-c2cc(=O)oc3cc(C)ccc23)oc2ccccc12
 : -3, 1.4, 3, -26, -2.6%, 5.4
Cc1ccc(S(=O)ONc2cccc(NOS(=O)c3ccc(C)cc3)c2)cc1 (stereo unspecified)
 : -10, -0.3, -1, -11, 1.5%, 0.7

Quoted at random: six records from the list, in no set order.
Second line of a record – D2 potentiator, TRPML1 ag, Six1-Eya2 inh, TRPML1 inh, PINK1 modulator, D2 ag
CN(C)C(CNC(=O)c1oc2ccccc2c1CSc1ncn[nH]1)c1ccco1 (stereo unspecified)
 : -6, -1.1, -3, -16, 3.5%, -7.4
COc1ccc(N/C=C(\C#N)c2nc3ccccc3n2C)c(OC)c1
 : -8, 1.0, -28, -9, -1.4%, -5.9
COc1cccc(NC(=S)NCCCN2CCOCC2)c1
 : -13, 0.6, 5, 18, -0.9%, 2.2
O=C(COC(=O)c1cccc(S(=O)(=O)N2CCOCC2)c1)c1ccccc1
 : -10, ?, 22, -13, 0.8%, 0.7
CCOC(=O)C(C)Sc1nnc(-c2ccccc2O)n1Cc1ccccc1 (stereo unspecified)
 : -3, -0.6, -1, 25, -1.2%, -3.6
Cc1ccc(S(=O)(=O)N2CCCCC2)cc1NC(=O)c1ccc(=O)[nH]c1
 : -6, -0.3, -6, 6, 1.2%, -2.7

Next part.
Second line of a record – D2 potentiator, TRPML1 ag, Six1-Eya2 inh, TRPML1 inh, PINK1 modulator, D2 ag
CCc1nc2ccccc2c(C(=O)NCc2ccccc2)c1C
 : -13, -0.8, 8, 5, 0.1%, -4.9
Cc1ccccc1NC(=O)Cn1c(C)nc2ccc(NC(=O)C3CC3)cc2c1=O
 : -12, 1.1, 0, -4, -2.7%[38.3 µM], -1.4
CC1CCCC(C)N1Cc1cn2ccccc2n1 (stereo unspecified)
 : -3, 1.1, 8, 18, -1.4%, -5.6
CCCC(=O)Nc1nn(CC(C)C)c2nc3cc(C)ccc3cc12
 : -6, 1.5, -3, -8, 10%, -2.6
CCOC(=O)c1ccc(NC(=O)CN2CCN(C(=O)c3ccco3)CC2)cc1
 : 21, -0.3, 8, -8, 0.2%, ?
COc1ccc(S(=O)(=O)n2nc(-c3ccco3)nc2NCc2ccc(C(C)C)cc2)cc1
 : ., 0.3, ., -10, 3.5%, .
COc1ccc(OC)c(S(=O)(=O)Nc2cccc(C(C)=O)c2)c1
 : 18, -0.4, 5, -16, ., 1.0
O=C(C1CCCN(S(=O)(=O)c2ccc(Br)s2)C1)N1CCN(c2ccccc2F)CC1 (stereo unspecified)
 : ., 2.5, ., -3, 2.7%, .
COc1ccc(-n2c(SCC(=O)N3CCCCC3)nc3ccccc3c2=O)cc1
 : -1, 1.2, -3, 12, 17%, -6.4
CCn1c(C2CC(=O)N(c3cc(C)cc(C)c3)C2)nc2ccccc21 (stereo unspecified)
 : -5, 0.2, 5, 16, 2.0%, -4.1
CC(=O)NC(CC(=O)Oc1ccc(C)cc1Br)c1ccccc1 (stereo unspecified)
 : -13, 0.0, -5, 2, 1.3%, -0.7

From PubChem
